Source: PubChem BioAssay
HCMV NEC inh = disrupts HCMV UL50-UL53 complex binding. HTRF UL50-UL53 interaction, normalized percent inhibition. inhibition, % (concentration not given with the values). AID 1918969. hit rate 0.15% among 190,000;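 active = both replicates at 50% or more, plus weaker picks with an unusually low signal ratio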;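 note: stock transfer was 100 nL into about 20 µL; 0% = negative control wells and 100% = wells with untagged competitor protein; inactives centre near -12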
Sa growth inh = S. aureus growth inhibition. S. aureus RN4220 growth, OD600, 20 h, 42 °C; stronger effect = lower value. relative growth, % (test concentration not listed). hit rate 0.53% among 170,000. AID 720641;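 active = growth at 42 °C up to 50% and 20 or more points under that at 30 °C, or under 10% at both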;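 note: 300 nL library stock went into each well; scaled to the means of positive and negative controls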
GIV Gai3 FP = blocks GIV peptide binding to rat Galpha-i3. hit rate 0.42% among 210,000. P08753. Galpha-i3/FITC-GIV peptide fluorescence polarization, 90 min; stronger effect = lower value; scaled: aluminum fluoride 0%, vehicle 100%. percent of control (FP), % (concentration not given with the values);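 active = replicate mean at 85% of control or lower, very high polarization wells dropped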;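 note: wells of about 15 µL received 100 nL stock; the first replicate is given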
Target sequence (P08753 whole entry, looked up): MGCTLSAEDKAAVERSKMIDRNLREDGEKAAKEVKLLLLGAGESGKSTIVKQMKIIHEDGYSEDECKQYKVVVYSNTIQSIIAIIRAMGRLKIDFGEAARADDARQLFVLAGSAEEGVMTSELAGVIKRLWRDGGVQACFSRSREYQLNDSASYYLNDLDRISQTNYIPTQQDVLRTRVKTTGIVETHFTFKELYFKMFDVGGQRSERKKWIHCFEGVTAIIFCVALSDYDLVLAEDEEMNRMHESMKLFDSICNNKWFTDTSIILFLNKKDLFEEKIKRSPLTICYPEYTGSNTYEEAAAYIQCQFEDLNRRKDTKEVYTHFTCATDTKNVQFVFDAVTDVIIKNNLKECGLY
Sa growth inh second temp = second read-out of Sa growth inh, no call of its own (marks repeat the call); relative growth, %; measured here: growth at 30 °C;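 optical density after 20 h as mean of two plates; 100% = untreated growth and lower means inhibition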
Numbers without * were called inactive; / = no result given; & = joins results of further samples. Outcome played no part in choosing rows. About 0.83% of those tested had a hit in this group.

nr | mol | HCMV NEC inh | Sa growth inh | Sa growth inh second temp | GIV Gai3 FP
1 | CCCOc1ccc(OC(=O)c2ccc(-c3ccc(CCC)cn3)cc2)cc1 | 10 | 108 | 95 | 107
2 | CC(C)(C)c1ccc(-c2nc3ccccc3c(=O)[nH]2)cc1 | -16 | 97 | 91 | 99
3 | CC(=O)Nc1ccc(NC(=O)C2CCCCN2C(=O)C2CCC(C)CC2)cc1 (configuration not stated) | -15 | 120 | 96 | 103
4 | CCC(C)NCCOc1ccc(Cl)c(Cl)c1 (configuration not stated) | -5 | 97 | 91 | /
5 | CCCn1c(=O)c2ccc(C(=O)NC(C)C)cc2n2c(=O)n(CC(=O)NCc3ccccc3Cl)nc12 | -20 | / | / | 111
6 | CSc1ccc(C2CC(=O)NC3=C2C(=O)CCC3)cc1 (configuration not stated) | -13 | 99 | 86 | 103
7 | Cc1cccc(CCNC(=O)CCS(=O)(=O)c2ccc3nc(C)sc3c2)c1 | 7 | / | / | 103
8 | Cc1ccc2c(c1)N(C(C)C(=O)NCc1ccccn1)C(=O)CO2 (configuration not stated) | / | 113 | 97 | 89
9 | c1ccc2nc(SCc3cn4ccccc4n3)cnc2c1 | -54 | 100 | 87 | /
10 | CC(=O)Nc1sc2c(c1C#N)CCC2 | -3 | 120 | 90 | /
11 | CCOC(=O)N1CCC2(CC1)N=C(c1ccccc1O)CC(c1ccccc1O)N2 (configuration not stated) | -14 | / | / | 98
12 | Cc1ccccc1CSCc1ccc(C(=O)NCCc2ccccc2)o1 | / | 68 | 88 | 99
13 | C/C=C/C(=O)NCc1ccccc1 | -9 | 89 | 94 | /
14 | CN(Cc1ccccc1)S(=O)(=O)c1cc(Br)cnc1N | / | 98 | 89 | 102
15 | CCCCCn1c(=O)[nH]c2cc(C(=O)N3CCN(c4cccc(OC)c4)CC3)ccc2c1=O | -5 | 96 | 90 | 107
16 | CCOC(=O)C1=C(CN2CCN(c3ccc(C)cc3C)CC2)NC(=O)NC1c1ccc(OC)cc1 (configuration not stated) | / | 106 | 79 | 109
17 | COc1ccc(C2=NN(S(=O)(=O)c3ccccc3)C(c3ccccc3F)C2)cc1OC (configuration not stated) | -4 | / | / | 105
18 | N#C/C(=C(/O)C(F)(F)F)c1nnc2n1CCCCC2 | -35 | 113 | 83 | /
19 | Cc1ccc(/C=N/N=C(/C(=O)c2ccccc2)c2ccccc2)o1 | 3 | 115 | 94 | /
20 | CCN(CC)CCNC(=O)C(=O)NCC(c1ccc2c(c1)OCO2)N1CCOCC1 (configuration not stated) | / | 108 | 94 | 96

nr | mol | HCMV NEC inh | Sa growth inh | Sa growth inh second temp | GIV Gai3 FP
21 | NC(=O)CNc1ncc(C(F)(F)F)cc1Cl | -8 | / | / | 104
22 | O=C(Nc1ccc2c(c1)OCCO2)N1CCN(c2ccc(-c3noc(C4CCCCC4)n3)cc2)CC1 | -20 | / | / | 104
23 | CNC(=O)c1cccc(-n2c(C)nc3cccnc32)c1C | / | 108 | 91 | 101
24 | COc1ccc(NC(=O)c2ccc3c(c2)sc2nc(-c4ccc(OC)cc4)cn23)cc1 | / | 100 | 94 | 108
25 | O=C(O)C1CC(=O)N(c2ccccc2O)C1 (configuration not stated) | -4 | 108 | 74 | 112
26 | COC(=O)c1c(NC(=O)C2CSC(c3ccncc3)=N2)sc(C)c1C (configuration not stated) | -16 | 96 | 90 | 105
27 | Cc1ccc(N(C)C(=O)c2noc3c2CCCCC3)cc1C | / | 95 | 91 | 96
28 | CC(C)CCNc1ncnc2c1cnn2-c1cccc(Cl)c1 | / | 90 | 83 | 104
29 | COc1ccc(C)cc1NC(=O)c1noc2c1CSc1ccccc1-2 | -4 | 108 | 94 | 96
30 | CCC(CN1CCOCC1)NS(=O)(=O)c1cc2[nH]c3c(c2cc1C)C(=O)CC(C)(C)C3 (configuration not stated) | -28 | 111 | 87 | 98
31 | CCCNc1nc2nc3ccc(C)cn3c(=O)c2cc1C(N)=O | -134 | 100 | 55 | 111
32 | CCN1CCN(c2cc(C)c3cc(NC(=O)/C=C/c4cccc(OC)c4OC)ccc3n2)CC1 | -6 | 107 | 90 | 99
33 | CCOc1cc(C2c3c(oc4ccc(F)cc4c3=O)C(=O)N2Cc2ccco2)ccc1O (configuration not stated) | -78 | 88 | 92 | 104
34 | CCn1c(=O)c2sccc2n2c(CCC(=O)N3CCN(c4ccccc4OC)CC3)nnc12 | 8 | 91 | 90 | 110
35 | CCC(CC)c1nnc(NC(=O)C2CC(=O)N(CCc3c[nH]c4ccc(C)cc34)C2)s1 (configuration not stated) | 1 | / | / | 104
36 | O=C(c1ccccc1)N1CC(OCc2ccc(Cl)cc2)C1 | -28 | / | / | 100
37 | O=C(O)/C=C/C(=O)N1CCOCC1 | -23 | 83 | 87 | /
38 | Cc1ccc(CN(Cc2ccco2)C(=S)NCC(=O)NC2CC2)cc1 | -26 | 96 | 90 | 110
39 | CCOC(=O)C1CCN(C(=O)CSc2nnc(-c3ccoc3C)o2)CC1 | -15 | / | / | 102
40 | Cc1ccc(-c2nnc3c4ccccc4c(-c4ccccc4)nn23)cc1 | 13 | 99 | 106 | 112

nr | mol | HCMV NEC inh | Sa growth inh | Sa growth inh second temp | GIV Gai3 FP
41 | COCC(=O)Nc1nc2ccccc2s1 | -2 | 94 | 91 | 97
42 | O=C(c1cc2ccccc2oc1=O)N(Cc1ccccc1)Cc1ccccc1 | / | 94 | 84 | 97
43 | COc1cccc2c(=O)c(NC(=O)NCCN3CCOCC3)c[nH]c12 | 23 | / | / | 106
44 | O=C1C(=O)N(C2CCN(S(=O)(=O)Cc3ccccc3)CC2)CCN1Cc1ccccc1 | 6 | / | / | 103
45 | CCOC(=O)c1cc(-c2ccc(OC)c(S(=O)(=O)Nc3ccc(Cl)cc3)c2)on1 | -10 | / | / | 107
46 | CC1CCN(C(=O)COC(=O)c2nn(-c3ccccc3C(F)(F)F)cc2O)CC1 | -11 | 118 | 98 | /
47 | COc1ccc(S(=O)(=O)N2CCCCC2)cc1-c1noc(C2CCCCC2)n1 | -25 | / | / | 102
48 | COc1ccccc1NC(=O)Nc1sc2c(c1C(N)=O)CCC2 | -10 | 97 | 92 | /
49 | O=S(=O)(c1cccc(-c2nn3c(-c4ccncc4)nnc3s2)c1)N1CCCCC1 | 5 | 72 | 92 | /
50 | COC(=O)c1sc2ccccc2c1OC(=O)c1cccs1 | / | 108 | 87 | 96
51 | COC(=O)c1c(NC(=O)COc2cc(C)c(Cl)c(C)c2)sc2c1CCCC2 | 10 | 93 | 93 | 111
52 | Fc1ccccc1COc1cccc2cccnc12 | -22 | 119 | 87 | 102
53 | O=c1cc(-c2ccccc2)nc(N2CCN(Cc3ccc4c(c3)OCO4)CC2)[nH]1 | -2&-16 | 99 | 102 | 103&99
54 | OCc1sccc1Oc1ccccc1 | -8 | 97 | 96 | 102
55 | CCN(CC)CCCNC(=O)c1cn(CC)c2ccc(S(=O)(=O)N3CCc4ccccc4C3)cc2c1=O | 11 | 99 | 77 | 105
56 | CC(=O)Nc1ccc(Oc2cncc(Cl)c2)nc1 | -15 | 102 | 92 | 101
57 | Cc1ccc(S(=O)(=O)NC(C)C(=O)N2CCN(c3cccc(Cl)c3)CC2)cc1 (configuration not stated) | -8 | 104 | 97 | 104
58 | CC(C)N1CCn2c(nc3cc(NC(=O)C(C)(C)C)ccc32)C1 | -20 | / | / | 106
59 | COc1ccc(-n2ncc(C(=O)N3CCN(Cc4ccccc4)CC3)c2C2CCN(C(=O)OC(C)(C)C)CC2)cc1 | / | 74 | 87 | 105
60 | CC1CCCC(NC(=O)COC(=O)CSc2nnc(-c3ccc(Cl)cc3)o2)C1C (configuration not stated) | -30 | 99 | 94 | /

nr | mol | HCMV NEC inh | Sa growth inh | Sa growth inh second temp | GIV Gai3 FP
61 | COc1ccc(-n2nnnc2SC(C)C(=O)Nc2ccc(S(=O)(=O)N3CCOCC3)cc2)cc1 (configuration not stated) | -9 | 102 | 106 | /
62 | COc1ccc(/C=C2\C(=O)NC(=S)N(c3cccc4ccccc34)C2=O)cc1OC | -5 | / | / | 111
63 | CC(OC(=O)Cc1ccc(F)cc1)C(=O)Nc1ccc(S(N)(=O)=O)cc1 (configuration not stated) | -7 | 93 | 87 | /
64 | COc1ccc(CCNC(=O)C2c3ccccc3C(=O)N2C2CCCC2)cc1OC (configuration not stated) | 9 | 111 | 102 | 102
65 | CCn1c(CC2C(=O)N(C)c3ccccc32)nc2ccccc2c1=O (configuration not stated) | -42 | 101 | 91 | 100
66 | O=C1CC(c2ccncc2)c2cc3c(cc2N1)OCCO3 (configuration not stated) | 32 | / | / | 103
67 | COC(CNC(=O)c1ccc2c(c1)ncn2-c1ccc(F)cc1F)OC | / | 98 | 82 | 104
68 | CC(=O)N1CCc2cc(Br)cc(S(=O)(=O)CCC(=O)NCCc3ccc(Cl)cc3)c21 | -6 | 107 | 83 | 99
69 | O=C(NC(=NCc1ccncc1)Nc1ccc2c(c1)OCCO2)c1ccccc1 | -6 | / | / | 100
70 | CC12CC3CC(C)(C1)CC(C(=O)NN)(C3)C2 | 15 | 113 | 99 | 109
71 | COC(=O)c1cc(COC(=O)c2cc3ccccc3cc2O)oc1C | -25 | 98 | 89 | /
72 | COc1ccc(OCCn2nnc3sc4c(c3c2=O)CCCC4)cc1 | -35 | 87 | 79 | 102
73 | COC(=O)C1=C(N)OC2=C(C(=O)CC(c3ccccc3)C2)C1c1cc([N+](=O)[O-])ccc1Cl (configuration not stated) | -11 | / | / | 106
74 | CCc1c(O)c2ccccc2n(-c2ccccc2)c1=O | 2 | 97 | 99 | 98
75 | CC(C)CN1CC(c2nc3ccccc3n2C)CC1=O (configuration not stated) | -4 | / | / | 100
76 | O=C1C(=O)N(C2CCN(C(=O)c3ccccc3Cl)CC2)CCN1Cc1cccc(F)c1 | -9 | / | / | 96
77 | CC(C)Nc1ccc(-c2nc(-c3ccccn3)no2)cc1[N+](=O)[O-] | -41 | 92 | 89 | 98
78 | CC1=C(C(=O)OC2CCCC2C)C(c2ccc(Cl)cc2)NC(=O)N1 (configuration not stated) | -7 | 28* | 49* | 100
79 | S=C1NCN(CCc2ccccc2)CN1CCCN1CCOCC1 | -8 | 95 | 86 | 103
80 | CC1=Nc2ccccc2NC(=O)C1Sc1nc2ccccc2s1 (configuration not stated) | / | 119 | 71 | 108

Part of the list above, with two lines to a compound:
Every second line gives: HCMV NEC inh, Sa growth inh, Sa growth inh second temp, GIV Gai3 FP
48	COc1ccccc1NC(=O)Nc1sc2c(c1C(N)=O)CCC2
    -10, 97, 92, /
49	O=S(=O)(c1cccc(-c2nn3c(-c4ccncc4)nnc3s2)c1)N1CCCCC1
    5, 72, 92, /
50	COC(=O)c1sc2ccccc2c1OC(=O)c1cccs1
    /, 108, 87, 96
51	COC(=O)c1c(NC(=O)COc2cc(C)c(Cl)c(C)c2)sc2c1CCCC2
    10, 93, 93, 111

More compounds follow:
nr | mol | HCMV NEC inh | Sa growth inh | Sa growth inh second temp | GIV Gai3 FP
81 | COc1ccccc1CNC(=O)CSc1ncc(S(=O)(=O)c2ccc(C)c(Cl)c2)c(=O)[nH]1 | / | 121 | 104 | 102
82 | CCOC(=O)c1cc2ccsc2n1CC(=O)Nc1ccc2c(c1)OCO2 | -26 | / | / | 102
83 | CCN(C(=S)NC(=O)C1CCCC1)C1CCCCC1 | -14 | 104 | 94 | /
84 | O=C(CN1CCN(c2ccc(O)cc2)CC1)N(C1CCCCC1)C1CCS(=O)(=O)C1 (configuration not stated) | -29 | 89 | 93 | /
85 | CCCCN1CCCc2cc(CN(CCCN3CCOCC3)C(=O)Nc3ccc(OCC)cc3)ccc21 | / | 124 | 89 | 99
86 | Cn1nc(-c2ccc(OCC(N)=O)cc2)c2ccccc2c1=O | -5 | 83 | 89 | 99
87 | CC(=O)NC(Cc1ccccc1)C(=O)NC1CCN(c2nnnn2-c2ccccc2)CC1 (configuration not stated) | 13 | 103 | 105 | 102
88 | COc1ccc(-c2nc(SCC(N)=O)c3c(=O)n(C)c(=O)n(C)c3n2)cc1 | / | 91 | 92 | 99
89 | CCc1nn(CC(=O)Nc2cc(C)cc(C)c2)c(=O)c2cc3sccc3n12 | -2 | 114 | 90 | 103
90 | COc1ccc(CNC(=O)C2CCN(S(=O)(=O)c3ccc(C)cc3)CC2)cc1 | -10 | 112 | 88 | 105
91 | COc1ccc(S(=O)(=O)N2CCC(c3nc4c(nnn4Cc4ccccc4F)c(=O)[nH]3)CC2)cc1OC | -3 | / | / | 96
92 | O=C(OCc1cccc(C(F)(F)F)c1)c1ccccc1F | 6 | 111 | 96 | /
93 | CCC(=O)Nc1ccccc1-c1nc2ccccc2n(C(CC)C(=O)Nc2cccc(Cl)c2)c1=O (configuration not stated) | 4 | 105 | 69 | 99
94 | CCOC(=O)c1c(C)sc(-c2c(-c3ccc(OC)c(F)c3)[nH]c3[nH]c(=O)[nH]c(=O)c23)c1O | -4 | 104 | 91 | 193
95 | CCOC(=O)c1c(C)[nH]c(C)c1S(=O)(=O)N1CCCC(C(=O)Nc2ccc(OC)cc2OC)C1 (configuration not stated) | -6 | / | / | 103

Whole records from above. Values in the order: HCMV NEC inh, Sa growth inh, Sa growth inh second temp, GIV Gai3 FP
`COc1ccc(S(=O)(=O)N2CCC(c3nc4c(nnn4Cc4ccccc4F)c(=O)[nH]3)CC2)cc1OC` is listed with -3, /, /, 96
`COc1ccc(CNC(=O)C2CCN(S(=O)(=O)c3ccc(C)cc3)CC2)cc1` is listed with -10, 112, 88, 105
`Cn1nc(-c2ccc(OCC(N)=O)cc2)c2ccccc2c1=O` is listed with -5, 83, 89, 99
`COc1ccc(-c2nc(SCC(N)=O)c3c(=O)n(C)c(=O)n(C)c3n2)cc1` is listed with /, 91, 92, 99
